PrP UTR inh – inhibition of PrP 5' UTR reporter expression; cell-based PrP 5' UTR mRNA reporter, plate reader; inhibition, % (test concentration not listed); 340,000 tested, 0.35% active;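 active = every replicate at 50% or more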;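 note: 0 = median of the neutral control wells; tested in H4 reporter cells; numbers are from one replicate; inactives centre near -14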
Sa RN4220 lethal – kills Staphylococcus aureus RN4220 | S. aureus RN4220 growth, OD600, 16 h | inhibition, % (concentration not given with the values) | 330,000 tested, 0.33% active;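 active = z-score of -3 or lower and OD600 up to 0.18 on both plates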;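 note: plate controls were untreated cells for no effect and reference antibiotic for full effect; stock transfer was 100 nL into about 80 µL; one replicate is shown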
Mtb hypoxia rep – reduces hypoxia-regulated biosensor signal in M. tuberculosis; M. tuberculosis hypoxia-regulated fluorescent reporter, fluorescence; fluorescence inhibition, % (concentration not given with the values); 300,000 tested, 0.1% active; AID 1159583;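 active = 35 to 45% if threefold the growth effect, above 45% if 1.5-fold the growth effect; inactive = the rest, general growth blockers included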;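 note: wells of about 50 µL received 100 nL stock; 0% = vehicle wells and 100% = reference inhibitor wells; whole bacteria with a GFP reporter of the hypoxia response; strong numbers were not always called active; many hits fall short of the cut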
BJeLR viability – kills HRASV12-expressing BJeLR cells. BJeLR (HRASV12) viability, CellTiter-Glo ATP luminescence, 48 h; reference of the scale not given here. inhibition, % (no concentration beside the values). 300,000 tested, 0.17% active. AID 1554;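 active = replicate mean above 50%; inconclusive = above 50% but judged a plate artefact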;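 note: 50 nL library stock added to about 25 µL; numbers are from one replicate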
Bead autofluor – counter-screen for toxin protease inhibitors: compound fluorescence; AID 624483; 360,000 tested, 3.1% active; compound autofluorescence counterscreen, microsphere flow cytometry; active compounds read high; fluorescence intensity (concentration not given with the values);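 active = at least 3 SD above the mean of all compounds, about 16000 in these data; inconclusive = too few beads counted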;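 note: 100 nL of 1 mM stock went into each well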
ugtP null kill – compounds lethal to S. aureus RN4220 ugtP deletion mutant. OD600 growth, 16 h; some inactives read as strong as hits. growth inhibition, % (concentration not given with the values). 330,000 tested, 0.54% active;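 active = z-score under -3 and OD600 up to 0.15 on both plates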;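 note: plate controls were untreated wells for no effect and antibiotic for full effect; wells of about 80 µL received 100 nL stock; the first replicate is given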
Mtb hypoxia rep growth – also measured in Mtb hypoxia rep; calls as there; growth inhibition, %; measured here: M. tuberculosis growth (absorbance);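 0% = vehicle and 100% = reference antibiotic; read after six days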
* hit, by the source's call.

For Cc1c(NC(=O)c2cccc(NS(C)(=O)=O)c2)c(=O)n(-c2ccccc2)n1C the results were PrP UTR inh -28, Sa RN4220 lethal 1.0, Mtb hypoxia rep 2, BJeLR viability -2, Bead autofluor 3942, ugtP null kill -6 and Mtb hypoxia rep growth 2.
Screening COc1ccc(Nc2nc3c(c(=O)n(C)c(=O)n3C)n2CCO)cc1 returned PrP UTR inh -12, Sa RN4220 lethal 2.8, Mtb hypoxia rep 7, BJeLR viability -1, Bead autofluor 2511, ugtP null kill 4 and Mtb hypoxia rep growth 10.
CCOc1ccc(NC(=O)CN(C)C(=O)COc2cccc(CC)c2)cc1OCC was read as PrP UTR inh -8, Sa RN4220 lethal -0.5, Mtb hypoxia rep 2, BJeLR viability 2, Bead autofluor inconclusive, ugtP null kill 3 and Mtb hypoxia rep growth 2.
`CN(Cc1ccccc1)C(=O)COC(=O)CCNC(=O)c1ccccc1Cl` gave PrP UTR inh -8, Sa RN4220 lethal 5.7, Mtb hypoxia rep 0, BJeLR viability -2, Bead autofluor 4717, ugtP null kill 2 and Mtb hypoxia rep growth 14.
`Cn1cc(/C=C(\C#N)C(=O)Nc2ccccc2O)c2ccccc21` gave PrP UTR inh -30, Sa RN4220 lethal 37, Mtb hypoxia rep 3, BJeLR viability 0, Bead autofluor 4412, ugtP null kill 15 and Mtb hypoxia rep growth 5.
Cc1ccc(Sc2ccc(N)cn2)cc1 was read as PrP UTR inh -17, Sa RN4220 lethal 0.9, Mtb hypoxia rep 5, BJeLR viability -17, Bead autofluor 4382, ugtP null kill 5 and Mtb hypoxia rep growth 2.
O=C(Nc1ccccc1C(=O)NC(Cc1c[nH]c2ccccc12)C(=O)O)c1ccco1 (stereo unspecified) was read as PrP UTR inh 4, Sa RN4220 lethal 5.0, BJeLR viability -2, Bead autofluor 5666 and ugtP null kill -7.
Screening COc1ccc(C2CC(c3ccccc3)=NN2C(=O)COC(=O)c2cccnc2Cl)cc1 (stereo unspecified) returned PrP UTR inh -17, Sa RN4220 lethal 1.6, Mtb hypoxia rep 0, BJeLR viability -11, Bead autofluor 2677, ugtP null kill 4 and Mtb hypoxia rep growth 2.
For CC(C)c1ccc(C(=O)Nc2nnc(S(=O)(=O)N3CCOCC3)s2)cc1 the results were PrP UTR inh 0, Sa RN4220 lethal 37, Mtb hypoxia rep 3, BJeLR viability 10, Bead autofluor 5022, ugtP null kill 36 and Mtb hypoxia rep growth 7.
`CCCc1nnc(SCC(=O)N2C(C)CCCC2C)n1CCCOC` (stereo unspecified) gave PrP UTR inh -3, Sa RN4220 lethal 2.1, Mtb hypoxia rep 3, BJeLR viability -8, Bead autofluor 3209, ugtP null kill 4 and Mtb hypoxia rep growth -5.
For O=C(/C=C/c1cccc(C(F)(F)F)c1)NNC(=O)c1ccncc1 the results were PrP UTR inh -14, Sa RN4220 lethal 2.2, Bead autofluor 4182 and ugtP null kill 10.
`Cc1ccc(CNC(=O)Cc2ccc(-c3ccccc3)cc2)cc1` gave PrP UTR inh -58, Sa RN4220 lethal 5.9, Mtb hypoxia rep 4, BJeLR viability -5, Bead autofluor 25102*, ugtP null kill 6 and Mtb hypoxia rep growth 6.
Screening O=C(Nc1ncccc1O)c1cccc(S(=O)(=O)N2CCCc3ccccc32)c1 returned PrP UTR inh -2, Sa RN4220 lethal 13, Mtb hypoxia rep 1, BJeLR viability 8, Bead autofluor 5416, ugtP null kill 1 and Mtb hypoxia rep growth 7.
`Cn1c(=O)c2c(SCC(=O)c3ccccc3)nc(C3CC3)nc2n(C)c1=O` gave PrP UTR inh 2, Sa RN4220 lethal -7.4, Mtb hypoxia rep 2, BJeLR viability -8, Bead autofluor 6110, ugtP null kill -13 and Mtb hypoxia rep growth 8.
COc1ccc(OC)c(/C=C/C(=O)c2ccc3c(c2)OCO3)c1 was read as PrP UTR inh -11, Sa RN4220 lethal 11, Mtb hypoxia rep 3, Bead autofluor inconclusive, ugtP null kill 5 and Mtb hypoxia rep growth 4.

By substructure, the compounds so far with an aryl methoxy group
Screening COc1ccc(Nc2nc3c(c(=O)n(C)c(=O)n3C)n2CCO)cc1 returned PrP UTR inh -12, Sa RN4220 lethal 2.8, Mtb hypoxia rep 7, BJeLR viability -1, Bead autofluor 2511, ugtP null kill 4 and Mtb hypoxia rep growth 10.
Screening COc1ccc(C2CC(c3ccccc3)=NN2C(=O)COC(=O)c2cccnc2Cl)cc1 (stereo unspecified) returned PrP UTR inh -17, Sa RN4220 lethal 1.6, Mtb hypoxia rep 0, BJeLR viability -11, Bead autofluor 2677, ugtP null kill 4 and Mtb hypoxia rep growth 2.
COc1ccc(OC)c(/C=C/C(=O)c2ccc3c(c2)OCO3)c1 was read as PrP UTR inh -11, Sa RN4220 lethal 11, Mtb hypoxia rep 3, Bead autofluor inconclusive, ugtP null kill 5 and Mtb hypoxia rep growth 4.

Further results.
O=C1c2cccc3cc([N+](=O)[O-])cc(c23)C(=O)N1CCN1CCCC1 was read as PrP UTR inh 90*, BJeLR viability 96* and Bead autofluor 3557.
Cc1c(C=NNC(=O)c2cc3ccccc3o2)c2ccccc2n1C was read as Sa RN4220 lethal 2.4, Mtb hypoxia rep 4, ugtP null kill -4 and Mtb hypoxia rep growth 0.
For Cc1ccc(OCCOc2cccc(Br)c2)c([N+](=O)[O-])n1 the results were PrP UTR inh -95, Sa RN4220 lethal 6.8, Mtb hypoxia rep 6, BJeLR viability -13, Bead autofluor 2389, ugtP null kill 0 and Mtb hypoxia rep growth 8.
For COC(CNC(=O)C1CCN(S(=O)(=O)c2ccc3nc4c(c(C(=O)O)c3c2)CC(C)CC4)CC1)OC (stereo unspecified) the results were PrP UTR inh -8, Sa RN4220 lethal 4.6, Mtb hypoxia rep 6, BJeLR viability 13, Bead autofluor 5511, ugtP null kill 9 and Mtb hypoxia rep growth -2.
For O=[N+]([O-])c1cccnc1SCc1c(F)cccc1Cl the results were PrP UTR inh -12, Sa RN4220 lethal -1.0, Mtb hypoxia rep -2, BJeLR viability -1, Bead autofluor 4107, ugtP null kill -11 and Mtb hypoxia rep growth -1.
CCN(CC)c1nc(N2CCN(CCO)CC2)nc2ccccc12 was read as PrP UTR inh -40, Sa RN4220 lethal 1.0, Mtb hypoxia rep 13, BJeLR viability 0, Bead autofluor 3842, ugtP null kill 5 and Mtb hypoxia rep growth 8.
For COc1ccc(N=Cc2cc(Cl)ccc2O)cc1Cl the results were PrP UTR inh -35, Sa RN4220 lethal 15, Mtb hypoxia rep 9, BJeLR viability -9, Bead autofluor 3347, ugtP null kill 6 and Mtb hypoxia rep growth 6.
For Cc1ccc(S(=O)(=O)N(C)c2ccc(NS(C)(=O)=O)cc2)cc1 the results were PrP UTR inh -30, Sa RN4220 lethal 0.6, BJeLR viability -3, Bead autofluor 4392 and ugtP null kill -3.
For Cc1ccc(CSc2nnc(-c3cccc(S(=O)(=O)N4CCOCC4)c3)n2C2CCCC2)cc1 the results were PrP UTR inh -19, Sa RN4220 lethal 4.7, Mtb hypoxia rep 6, BJeLR viability -25, Bead autofluor 2578, ugtP null kill -6 and Mtb hypoxia rep growth 6.
COc1nc2ccc(C)cc2cc1-c1noc(-c2cccnc2)n1 was read as PrP UTR inh -14, Sa RN4220 lethal 3.9, BJeLR viability -2, Bead autofluor 4921 and ugtP null kill -12.
O=C(N/N=C/C=C/c1ccccc1)c1cnccn1 was read as PrP UTR inh -11, BJeLR viability 0 and Bead autofluor 4576.
Screening Cc1cc(C)n(-c2nnc(C)c(=O)[nH]2)n1 returned PrP UTR inh -19, Sa RN4220 lethal 5.0, Mtb hypoxia rep -7, BJeLR viability -8, Bead autofluor 6184, ugtP null kill -1 and Mtb hypoxia rep growth 2.
For CCn1c(NCc2ccc3c(c2)OCO3)nc2ccccc21 the results were PrP UTR inh -12, Sa RN4220 lethal -6.5, Mtb hypoxia rep 2, BJeLR viability 3, Bead autofluor 4020, ugtP null kill -2 and Mtb hypoxia rep growth -6.
For O=C(NCc1ccncc1)c1nc(-c2cccs2)no1 the results were PrP UTR inh 0, Sa RN4220 lethal 0.5, Mtb hypoxia rep 10, BJeLR viability -5, Bead autofluor 2500, ugtP null kill 0 and Mtb hypoxia rep growth 10.
CCn1c(SCc2ccccc2)nc2ccccc2c1=O was read as PrP UTR inh -29, Sa RN4220 lethal 5.2, Mtb hypoxia rep 14, BJeLR viability -3, Bead autofluor 6099, ugtP null kill 10 and Mtb hypoxia rep growth 4.
`CCOC(=O)N1CCC(NS(=O)(=O)c2ccccc2)CC1` gave PrP UTR inh -8, Sa RN4220 lethal 1.4, Mtb hypoxia rep 1, BJeLR viability -1, Bead autofluor 5614, ugtP null kill 3 and Mtb hypoxia rep growth 13.
Screening O=C(O)CCC(=O)N1CCc2cc(S(=O)(=O)NCc3ccc(Cl)cc3)ccc21 returned PrP UTR inh -14, Sa RN4220 lethal -3.0, Mtb hypoxia rep -2, BJeLR viability 7, Bead autofluor 3958, ugtP null kill -2 and Mtb hypoxia rep growth 2.
Cc1ccc(NC(=O)C2CCN(S(C)(=O)=O)CC2)cc1 was read as PrP UTR inh -1, Sa RN4220 lethal 3.7, Mtb hypoxia rep 6, BJeLR viability 7, Bead autofluor 22760*, ugtP null kill 3 and Mtb hypoxia rep growth 2.
`CC(C)C(C(=O)Nc1ccc2c(c1)OCO2)N1C(=O)c2ccccc2C1=O` (stereo unspecified) gave PrP UTR inh -13, Sa RN4220 lethal 1.6, Mtb hypoxia rep 7, Bead autofluor 20817*, ugtP null kill -8 and Mtb hypoxia rep growth 12.
Screening C=CCn1c(SCC(=O)Nc2nc(C)cs2)nnc1C(CO)NC(=O)c1ccccc1 (stereo unspecified) returned PrP UTR inh 1, Sa RN4220 lethal 3.0, BJeLR viability -5, Bead autofluor 4560 and ugtP null kill 7.
`Cc1cc(C)cc(NC(=O)Cn2nnc(C(=O)NCc3ccc(F)cc3)c2N)c1` gave PrP UTR inh -12, Sa RN4220 lethal 4.1, Mtb hypoxia rep -4, BJeLR viability 6, Bead autofluor 4269, ugtP null kill -3 and Mtb hypoxia rep growth -2.
`CCN(CC)c1nc2c(c(=O)[nH]c(=O)n2C)n1CCCc1ccccc1` gave PrP UTR inh -9, Sa RN4220 lethal 3.0, Mtb hypoxia rep -1, BJeLR viability 7, Bead autofluor 3871, ugtP null kill -9 and Mtb hypoxia rep growth 5.
Screening COc1cc(OC)c(NC(=O)C(=O)CC(=O)c2ccc(C)cc2C)cc1Cl returned PrP UTR inh 10, Sa RN4220 lethal 85*, Mtb hypoxia rep 5, BJeLR viability 4, Bead autofluor 3310, ugtP null kill 69 and Mtb hypoxia rep growth 1.
For Cc1nn(-c2ccccc2)nc1C(=O)NNC(=O)c1cccc2ccccc12 the results were PrP UTR inh -32, Sa RN4220 lethal 0.5, Mtb hypoxia rep 2, BJeLR viability -9, Bead autofluor 6609, ugtP null kill 2 and Mtb hypoxia rep growth 0.
CCn1cc(C(=O)O)c(=O)c2cnc(N3CCN(C(=S)NC(=O)c4ccc(F)c(F)c4)CC3)nc21 was read as PrP UTR inh 4, Sa RN4220 lethal 11, Mtb hypoxia rep -6, BJeLR viability 8, Bead autofluor inconclusive, ugtP null kill 14 and Mtb hypoxia rep growth -4.
For COc1ccc(Cl)cc1NC(=O)CN1CCC(n2nnc3cc(C)ccc32)CC1 the results were PrP UTR inh -13, Sa RN4220 lethal -2.6, Mtb hypoxia rep 5, BJeLR viability -1, Bead autofluor 3721, ugtP null kill -11 and Mtb hypoxia rep growth 6.
For CN1CCN(c2ccc(C(F)(F)F)cc2N)CC1 the results were PrP UTR inh -23, Sa RN4220 lethal 7.3, Mtb hypoxia rep 14, BJeLR viability 1, Bead autofluor 4239, ugtP null kill 2 and Mtb hypoxia rep growth 1.
`CCN1C(=O)/C(=C2/C=Cc3ccccc3N2CC)SC1=S` gave PrP UTR inh -32, Sa RN4220 lethal 6.6, BJeLR viability 8, Bead autofluor 2110 and ugtP null kill 13.
CC(C)(Oc1ccc(Cl)cc1)C(=O)NCC1CCCO1 (stereo unspecified) was read as PrP UTR inh -8, Sa RN4220 lethal 1.3, Mtb hypoxia rep 11, BJeLR viability -14, Bead autofluor inconclusive, ugtP null kill 3 and Mtb hypoxia rep growth 6.
`CCCOc1ccc(C2c3c(oc4cc(C)c(C)cc4c3=O)C(=O)N2CCCN(C)C)cc1OCC` (stereo unspecified) gave PrP UTR inh -7, Sa RN4220 lethal -2.1, BJeLR viability -8, Bead autofluor 6006 and ugtP null kill 6.
